# Beta2AR agonist – agonists of human beta-2 adrenergic receptor inducing internalization | AID 504454 | actives 0.43% (n = 340,000) | response, % (test concentration not listed) | Am2.2-beta2AR cells, FAP receptor internalization, flow cytometry; reference of the scale not given here;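 active = response above a set limit, near 3 SD of response in nonfluorescent compounds, cut at about 42% in these data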;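 also: stock transfer was 100 nL into about 11 µL; a reference agonist was the positive control; negative values mostly stem from fluorescent compounds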
# Target sequence (P07550 whole entry, looked up): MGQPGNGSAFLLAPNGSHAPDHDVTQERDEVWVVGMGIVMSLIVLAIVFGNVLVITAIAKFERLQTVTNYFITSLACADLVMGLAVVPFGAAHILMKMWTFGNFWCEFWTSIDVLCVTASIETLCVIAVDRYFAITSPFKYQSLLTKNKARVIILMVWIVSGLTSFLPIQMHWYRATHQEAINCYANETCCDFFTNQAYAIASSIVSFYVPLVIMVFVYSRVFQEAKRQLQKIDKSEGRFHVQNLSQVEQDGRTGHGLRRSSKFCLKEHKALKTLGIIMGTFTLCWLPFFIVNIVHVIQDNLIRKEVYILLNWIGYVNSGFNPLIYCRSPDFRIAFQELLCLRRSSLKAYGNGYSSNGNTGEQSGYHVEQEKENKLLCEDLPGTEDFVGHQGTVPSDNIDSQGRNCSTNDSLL
# A1 inh – inhibitors of the anti-apoptotic protein A1, read as caspase activation; MEF A1-2A-BIM cells, Caspase-Glo 3/7 luminescence, 3 h; percent of clofoctol response, vehicle zero; actives 0.066% (n = 330,000); AID 2462; caspase activation, % (no concentration beside the values);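 active = over half of replicate activation scores above 10%, or exactly half above 10 with the replicate mean above 10; inconclusive = replicate mean below 10 yet half the replicates above 10; inactive = over half of replicates below 10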;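 also: wells of about 30 µL received 50 nL stock; many hits fall short of the cut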
# T cruzi inh – blocks replication of Trypanosoma cruzi; T. cruzi beta-gal in NIH3T3, luminescence, 90 h; actives 1.4% (n = 300,000); inhibition, % (concentration not given with the values);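 active = mean inhibition across valid replicates above about 55%, limit read from the data; inconclusive = mean below that limit but half or more replicates reach it; inactive = mean below it, under half of replicates reach it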;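 also: signal also drops with host cell toxicity which is not excluded here; 0% = plate median of DMSO wells and 100% = zero luminescence signal; higher percent means less beta-gal luminescence so fewer parasites; stock transfer was 50 nL into about 50 µL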
# Calb FLC – C. albicans growth modulation with fluconazole. growth inhibition, % (concentration not given with the values). C. albicans CaCi-2 (fluconazole-resistant clinical isolate) + fluconazole, Alamar Blue growth, 48 h. actives 0.57% (n = 300,000);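 active = most replicates above 75%; inconclusive = exactly half above 75%; inactive = most below 75%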;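 also: all wells also contain fluconazole at 8 µg/ml as a sub-toxic cotreatment; 0% = median of DMSO wells and 100% = median of geldanamycin control wells; wells of about 8 µL received 7.5 nL stock; the first replicate is given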
# ALR H2O2 inh – human ALR oxidase inhibition via reduced H2O2; P55789; purified ALR, DTT oxidation, H2O2 HRP-luminol luminescence; inhibition, % (concentration not given with the values); actives 3.8% (n = 290,000); AID 485317;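 active = mean and each replicate at 75% or more; inconclusive = only one of the two met; inactive = neither met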;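 also: stock transfer was 7.5 nL into about 7.5 µL; 0% = neutral wells and 100% = wells with inactivated enzyme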
# Target sequence (P55789 whole entry, looked up): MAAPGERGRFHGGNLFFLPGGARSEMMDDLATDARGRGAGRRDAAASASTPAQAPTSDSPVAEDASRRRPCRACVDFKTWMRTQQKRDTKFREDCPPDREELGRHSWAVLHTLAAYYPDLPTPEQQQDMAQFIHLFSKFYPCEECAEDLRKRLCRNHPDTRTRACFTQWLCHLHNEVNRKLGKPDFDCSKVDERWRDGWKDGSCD
# Beta cell apopt – blocks beta cell apoptosis | INS-1E cytokine-induced death, ATP luminescence, 48 h; percent of positive-control rescue, neutral wells zero | protection from apoptosis, % (test concentration not listed) | actives 0.8% (n = 300,000) | AID 435005;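 active = all replicates at 75% or more, or half of them and the mean; inconclusive = half reach 75% but not the mean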;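 also: 0% = cytokine-treated negative control wells and 100% = positive control rescue; higher means more ATP so stronger rescue from cytokine killing; wells of about 40 µL received 100 nL stock; the first replicate is given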
# LANA-H2B inh – blocks KSHV LANA binding to histone H2A/H2B. actives 0.6% (n = 320,000). cell-free LANA-H2A/H2B peptide, fluorescence polarization. AID 2629. inhibition, % (concentration not given with the values); in the data active = inhibition mostly above about 10%, no sharp cut-off; inactive = mostly below about 6.7%;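 also: stock transfer was 7.5 nL into about 10 µL; 0% = median of vehicle wells and 100% = median of positive control wells; one replicate is shown; the record names a cut of 25% in any replicate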
# Ecoli rRNA inh – selective bacterial rRNA inhibition in E. coli. GFP signal change (wild-type ribosome), % (test concentration not listed). AID 720706. E. coli WT GFP vs humanized-ribosome RFP mutants, fluorescence, 24 h; hits give low values; DMSO median 0, no signal -100. actives 1.6% (n = 350,000);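 active = significant combined selectivity score with lowered wild-type GFP, culture density cut under 30%, mutant RFP and density less affected; inactive = any of these conditions unmet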; also: one replicate is shown; some compounds called inactive have numbers as strong as hits
# Ecoli rRNA inh OD600 – also measured in Ecoli rRNA inh; calls as there; OD600 change, %; measured here: OD600 growth;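 optical density of the mix in the first replicate; 0 = DMSO median and -100 = no signal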
# Ecoli rRNA inh RFP – recorded beside Ecoli rRNA inh, whose call it bears; RFP signal change, %; measured here: RFP humanized mutant strains;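 first replicate; 0 = DMSO median and -100 = no signal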
# Starred values were filed as active, the others as inactive; u = inconclusive; x = not tested or not shown; & = joins results of further samples. Some of the compounds tested, so the mix of outcomes need not match the whole.
# The line under a structure holds: Beta2AR agonist	A1 inh	T cruzi inh	Calb FLC	ALR H2O2 inh	Beta cell apopt	LANA-H2B inh	Ecoli rRNA inh	Ecoli rRNA inh OD600	Ecoli rRNA inh RFP
- Cc1nn(Cc2ccccc2)c(Cl)c1C(=O)Nc1ccc(OC(F)(F)F)cc1
→ 9	-0.4	-23	13	-2	-7	3.5	x	x	x
- COc1cc(CCN)ccc1O
→ -11	-0.3	x	x	31	-1	2.2	x	x	x
- COc1ccc(C(=O)C2CCCN(CCO)C2)c(C)c1 (configuration not stated)
→ 4	-0.3	1	-1	x	-3	4.7	6	7	-2.5
- O=C1NC(=O)C(=Cc2ccc(-c3ccc(F)cc3O)o2)C(=O)N1
→ 42*	0.0	-23	5	98*	-10	-0.3	21	18	10
- CCN(CC)C(=O)c1ccc(NC(=O)COc2ccc(-c3nn(C)c(=O)c4ccccc34)cc2)cc1
→ 2	-1.0	20	12	5	1	-0.9	-10	-17	4.2
- C=CCn1cc(C=C2C(=O)NC(=O)NC2=O)c2ccccc21
→ -92	0.7	-6	8	55	-3	-3.6	22	6	27
- C[C@]12CCC3C(CC[C@H]4C[C@H](O)CC[C@]34C)C1C[C@@H](CCCCl)[C@@H]2O (some centres not stated)
→ x	0.0	x	x	-2	1	-0.5	-54	-72	-14
- Oc1ccc(Cl)cc1CN1CCN(Cc2ccccc2)CC1
→ 2	0.7	8	-18	9	-5	-7.5	x	x	x
- CN1C(=O)C(=Cc2ccc(-c3cccc(Cl)c3)o2)C(=O)N(C)C1=O
→ x	-0.2	-12	-1	12	-12	2.9	x	x	x
- COc1cccc(NP(=O)(Oc2ccccc2)Oc2ccccc2)c1
→ 7	-0.1	-70	-14	-10	7	-7.2	x	x	x
- C=CCn1c(O)c(/C(CC)=N/NC(=S)Nc2ccccc2)c(=O)[nH]c1=O
→ -4	0.6	-4	-16	x	-1	2.5	8	-8	-3.0
- CC12CC[C@H]3[C@@H](CCC4(O)C[C@H](O)CCC34/C=N/NC(=O)Cc3ccccc3)C1(O)CCC2C1=CC(=O)OC1 (some centres not stated)
→ 3	-0.7	9	4	-5	-6	-9.7	5	4	-7.1
- COc1ccc(CCNCc2ccncc2)cc1
→ 2	-0.1	10	-4	-10	-2	-0.3	x	x	x
- O=C(Cn1ncc2ccccc21)N1CCC2(CC1)OCCO2
→ 5	-0.6	-23	-1	-4	-5	0.6	5	10	0.1
- CC(C)(C)c1ccc(CN2C(=O)CN=C(c3ccccc3)c3ccccc32)cc1
→ 8	2.0	54	8	-5	31	2.4	x	x	x
- COc1ccc(C2N3CC(C)(C)CN23)cc1 (configuration not stated)
→ x	0.1	-4	-27	-5	-7	0.8	x	x	x
- CC[N+](C)(CC)CCCCOc1ccc2c(c1)C(=O)c1cc(OCCCC[N+](C)(CC)CC)ccc1-2
→ -5	0.6	-4	0	0	-1	-2.3	-53*	-25*	-22*
- C=CCn1c(O)c(C(CC)=Nc2ccc(N(C)C)cc2)c(=O)[nH]c1=O
→ 1	0.0	15	-5	8	-4	0.0	3	-2	37
- COc1ccc(CCNCc2ccc(F)cc2)cc1OC
→ 10	-0.3	39	7	-4	1	2.7	x	x	x
- CCN1C(=O)/C(=C/c2ccc3c(c2)CCN3CCCCl)C(=O)NC1=S
→ 1	1.1	10	-4	98*	-2	1.0	10	-2	36
- O=C(CCC(=O)N1CCC2(CC1)OCCO2)Nc1nnc(C2CCCCC2)s1
→ -2	-1.2	-10	-2	-4	0	-4.0	4	3	3.6
- CC(C)CNC(=O)c1c(N)n(Cc2ccc3c(c2)OCO3)c2nc3ccccc3nc12
→ -1	-0.8	23	-1	15	-11	5.5	x	x	x
- Cc1ccccc1N1CCN(C2CCCN(C(=O)COc3ccccc3)C2)CC1 (configuration not stated)
→ -5	-0.5	15	6	17	-8	1.4	-31	-28	-4.3
- N[C@@H](Cc1ccccc1)C(=O)N1C[C@H]2C[C@@H](C1)c1cccc(=O)n1C2
→ 0	0.7	-9	3	x	1	2.7	x	x	x
- COc1ccc(CN2CCCC(C(=O)c3ccc(Cl)cc3)C2)c(O)c1 (configuration not stated)
→ 6	0.0	21	-28	3	x	2.2	-23	-27	10
- CCn1c(O)c(C(=O)CC2NCCc3ccccc32)c(=O)n(CC)c1=S (configuration not stated)
→ 7	1.6	x	x	5	x	-11	x	x	x
- Cc1ccc(N2C(=O)NC(=O)/C(=C\c3cc(C)n(-c4sc5c(c4C#N)CCCC5)c3C)C2=O)cc1
→ 33	0.7	-2	u	4	2	-2.8	x	x	x
- COc1cccc(CN2CCNCC2)c1OC
→ 2	1.9	u	33	-7	-2	-3.4	2	4	-1.1
- O=[N+]([O-])c1ccc(Nc2ccccc2)cc1
→ 11	1.1	9	-74	24	3	-1.6	-16	-16	-2.2
- CCN1C(=O)NC(=O)/C(=C\c2ccc(N3CCOCC3)cc2OC)C1=O
→ x	0.2	7	-9	9	-2	-0.2	x	x	x

# Random excerpt: 4 entries already listed.
# The line under a structure holds: Beta2AR agonist	A1 inh	T cruzi inh	Calb FLC	ALR H2O2 inh	Beta cell apopt	LANA-H2B inh	Ecoli rRNA inh	Ecoli rRNA inh OD600	Ecoli rRNA inh RFP
- O=C1NC(=O)C(=Cc2ccc(-c3ccc(F)cc3O)o2)C(=O)N1
→ 42*	0.0	-23	5	98*	-10	-0.3	21	18	10
- CN1C(=O)C(=Cc2ccc(-c3cccc(Cl)c3)o2)C(=O)N(C)C1=O
→ x	-0.2	-12	-1	12	-12	2.9	x	x	x
- C=CCn1cc(C=C2C(=O)NC(=O)NC2=O)c2ccccc21
→ -92	0.7	-6	8	55	-3	-3.6	22	6	27
- CCn1c(O)c(C(=O)CC2NCCc3ccccc32)c(=O)n(CC)c1=S (configuration not stated)
→ 7	1.6	x	x	5	x	-11	x	x	x

# Continued.
# The line under a structure holds: Beta2AR agonist	A1 inh	T cruzi inh	Calb FLC	ALR H2O2 inh	Beta cell apopt	LANA-H2B inh	Ecoli rRNA inh	Ecoli rRNA inh OD600	Ecoli rRNA inh RFP
- Clc1ccc(-c2nc3ccc(Cl)cn3c2CN2CCOCC2)cc1
→ 10	-2.2	26	u	-14	4	14	x	x	x
- C[C@@H]1CC[C@H]2[C@@H](C)C(=O)O[C@@H]3O[C@@]4(C)CC[C@@H]1[C@]32OO4
→ 5	-0.3	1	-2	-30	x	4.6	-14	-28	26
- ClCCNc1nc2ccc(Cl)cc2[nH]1
→ 1	0.1	-18	9	98*	-7	-0.8	x	x	x
- CCC(C)(C)n1nnnc1C(c1cccs1)N1CC=C(c2ccc(F)cc2)CC1 (configuration not stated)
→ 13	-0.2	26	1	1	-3	0.8	-8	-6	11
- COc1ccccc1-n1c(-c2ccccc2Cl)nc2ccccc2c1=O
→ -10	1.3	15	-2	-10	3	-4.8	-1	5	-2.1
- COC(=O)C1=C(c2ccccc2)C[C@@H]2CC[C@H]1N2C(=O)NCc1ccco1
→ 5	-0.1	13	7	x	0	-1.5	1	4	-3.9
- O=C1NC(=O)C(C/C=C/c2ccccc2)C(=O)N1
→ -2	-0.2	-8	-2	-1	-2	-4.4	x	x	x
- N=c1c2c(n(Cc3ccc(Cl)cc3Cl)c3c1CCC3)CCCC2
→ -1	-0.6	51	-2	-4	121*	2.8	x	x	x
- O=[N+]([O-])c1ccc(-c2ccccc2)c([As](=O)(O)O)c1
→ -4	2.4	33	2	0	-9	1.0	10	22	7.5
- Cc1cc(C)cc(N2C(=O)NC(=O)/C(=C\C=C\c3ccco3)C2=O)c1
→ 59*	1.5	-3	1	96*	14	-0.2	9	11	12
- O=C(c1cc(F)ccc1F)C1CCCN(Cc2cc(Cl)ccc2O)C1 (configuration not stated)
→ -5	1.8	-15	-8	0	-4	3.0	-17	-33	3.5
- CCCCn1c(=O)c(C(=O)Nc2ccc(C)cn2)c(O)c2ccccc21
→ -3	-1.1	-13	12	-2	3	3.4	x	x	x
- C=CCN1C(=O)NC(=O)/C(=C/c2ccc(N(C)C)c(Br)c2)C1=O
→ 5	1.4	-10	-14	x	-3	3.6	17	14	3.5
- CN(C)C1(CNC(=O)c2cc(S(=O)(=O)N3CCOCC3)c(Cl)cc2Cl)CCCCC1
→ 33	0.0	-6	1	-5	6	2.3	11	2	0.4
- CC1N=C(c2ccccc2)c2cc(Br)ccc2NC1=O (configuration not stated)
→ -7	1.4	-10	-8	1	-3	-1.3	-16	-29	-5.0
- CC(C)Cc1nnc(NC(=O)CCC(=O)N2CCN(CCOC(c3ccccc3)c3ccccc3)CC2)s1
→ -6	-0.2	22	7	x	-8	3.9	x	x	x
- CCC(=O)N1N=C(c2c(O)n(CCc3ccccc3)c(=O)[nH]c2=O)CC1c1ccc(OC)c(OC)c1 (configuration not stated)
→ 1	0.6	5	2	23	-2	-4.1	-28*	-2.8*	-9.1*
- Cc1nc2ccc(Cl)cc2c(=O)n1-c1ccccc1Cl
→ -11	-0.4	-24	6	1	x	-0.5	3	-11	-2.6
- CCCNC(=O)N1[C@H]2CC[C@@H]1C(C(=O)OC)=C(c1ccc(Cl)c(C(F)(F)F)c1)C2
→ 9	-0.7	x	x	0	-1	4.3	-38	-38	-9.3
- Cc1nc2ccccc2c(=O)n1-c1ccc(-c2ccccc2)cc1
→ -11	0.1	3	8	-2	7	-3.8	8	19	2.4
- O=C1C(=O)c2cccc3cccc1c23
→ 18	0.3	-5	-35	-2	-10	10	-3	-6	-2.5
- COc1cccc(-c2cc(C(F)(F)F)n3nc(C(=O)N4CCC5(CC4)OCCO5)cc3n2)c1
→ -10	-0.3	27	25	-3	-1	0.8	x	x	x
- Cc1ncc([N+](=O)[O-])n1CCOC(N)=O
→ 3	0.3	4	4	-16	-3	-2.1	20	10	2.8
- COc1ccc(-c2cc(=O)oc3c(C)c(OC(C)C(=O)N4C[C@H]5C[C@@H](C4)c4cccc(=O)n4C5)ccc23)cc1 (some centres not stated)
→ -19	-0.5	5	-2	-22	0	-3.4	x	x	x
- O=c1c2ccccc2nc(/C=C/c2ccccc2)n1-c1ccc(O)cc1
→ 3	0.1	24	12	-1	-8	-4.7	6	7	1.9
- Fc1ccc(C(OCCN2CCCC2)c2ccc(Br)cc2)cc1 (configuration not stated)
→ 8	0.7	19	-3	-5	5	13*	-47	-61	-9.2
- CCCc1cc(=O)oc2cc(OCC(=O)N3CCC(C(=O)O)(c4ccccc4)CC3)ccc12
→ -14	-0.3	2	-2	x	-2	-6.7	x	x	x
- O=c1[nH]c(=O)n(-c2cccc(Cl)c2)c(O)c1/C=N/c1ccccn1
→ -9	-0.3	7	-1	-6	-7	-2.7	x	x	x
- O=C1CC[C@@]2(O)[C@H]3Cc4ccc(O)c5c4[C@@]2(CCN3CC2CC2)[C@H]1O5
→ 4	-0.5	-3	x	x	2	1.2&-8.3	x	x	x

# Bioassay records deposited in PubChem BioAssay by several laboratories.
